Source: PubChem BioAssay
Vaccinia Venus = inhibitors of vaccinia virus (Venus reporter); Potency, µM (top dose mostly 36.5 µM), for the others: top-dose activity change, negative = inhibition, actives largely listed as inhibitors; Vaccinia virus Venus reporter expression, fluorescence; 0.46% of 330,000 active; active means well fitted inhibition curve with a large enough effect; inconclusive means small, poorly fitted or top-dose-only effect; inactive means no such curve, though single readings can be large or run the other way; tested in A549 cells; note: nearly all actives have a fitted effect of over 30% in size; inactives centre near -10
Vaccinia mCherry = inhibitors of vaccinia virus infection (mCherry reporter signal) | Vaccinia virus mCherry reporter infection, fluorescence; about a quarter of the inactives have no number | Potency, µM (top dose mostly 36.5 µM), inactives show top-dose activity change, negative = inhibition, hits mostly inhibitors | 0.63% of 310,000 active; active = well fitted inhibition curve with a large enough effect; inconclusive = small, poorly fitted or top-dose-only effect; inactive = no such curve, though single readings can be large or run the other way; tested in A549 cells; note: nearly all actives have a fitted effect of over 35% in size; inactives centre near -10
* = called active by the depositor; i = inactive; u = inconclusive; x = no result given; & = joins results of further samples. % is set by controls: 0 for no effect and ±100 for the full control effect; potency is the fitted concentration of half-maximal effect.

Sample of the layout (2 entries):
SMILES | Vaccinia Venus | Vaccinia mCherry
Cc1ccc(Cc2cn3cc(-c4ccc(F)cc4)nc3s2)cc1 | 2% | -7%
Cc1nn(CC(=O)NCCCc2ccccc2)c(C)c1[N+](=O)[O-] | -16% | -6%

Main list, repeating the preview:
SMILES | Vaccinia Venus | Vaccinia mCherry
Cc1ccc(Cc2cn3cc(-c4ccc(F)cc4)nc3s2)cc1 | 2% | -7%
Cc1nn(CC(=O)NCCCc2ccccc2)c(C)c1[N+](=O)[O-] | -16% | -6%
COCCN(CC(=O)NC1CCCCC1)C(=O)/C=C/C(=O)c1ccc(OC)cc1O | 1% | 1%
COc1ccccc1NC(=O)c1sc2nc3c(cc2c1N)CCCCCC3 | -10% | -11%
Cc1ccc(Cl)cc1N(CC(=O)NCc1ccc2c(c1)OCO2)S(C)(=O)=O | -6% | -5%
CCOc1ccc2[nH]c3c(NCCc4ccc(OC)c(OC)c4)ncnc3c2c1 | -7% | u
CCc1nn(CC(=O)N2CCN(c3cc(C)ccc3C)CC2)c(=O)c2cc3occc3n12 | -15% | -21%
CCOC(=O)c1[nH]c2ccccc2c1NC(=O)c1ccccc1OC | -15% | -26%
CN=C1S/C(=C\c2ccc(O)c(OC)c2)C(=O)N1C | -28% | -15%
CC(=O)N1C(=O)N(C(C)=O)C2C1N(C)C(=O)N2C(C)=O (stereo unspecified) | -2% | -5%
O=C(/C=C/c1ccc(F)cc1)NCC1(c2ccccc2)CCOCC1 | -6% | i
CC1(NC(=S)N(CCO)CCO)CCS(=O)(=O)C1 (stereo unspecified) | -9% | -17%
COc1cccc(NC(=O)N2CCCC2C(=O)NC2CCCC2)c1 (stereo unspecified) | -10% | -18%
O=C(CCN1CCN(c2ccccc2)CC1)NNC(=S)Nc1ccccc1Cl | -19% | -14%
CC#CP(=O)(OC)C(O)(CF)c1ccccc1 (stereo unspecified) | -13% | i
CCCCN1C[C@H](c2ccc(Br)cc2)[C@@H](CC(=O)Nc2ccc(Br)cc2)C1=O | -3% | -10%
CN(C)S(=O)(=O)c1ccc2c(c1)N(CC(=O)NCc1cccc(Br)c1)C(=O)CS2 | -4% | -19%
CC(C)CCOc1ccc(C(CC(N)=O)C(=O)O)cc1 (stereo unspecified) | u | x
CCOCCc1c(O)nc(SCC)[nH]c1=O | -16% | i
CCc1cccc2c(C(=O)COC(=O)[C@@H]3CC(O)CN3S(=O)(=O)c3ccccc3[N+](=O)[O-])c[nH]c12 (stereo partly specified) | -16% | u
CCOc1ccc(CNC(=O)C2CCN(c3nn4c(=O)cc(C)nc4s3)CC2)cc1 | -10%&-24% | -15%&-2%
C/C(=N/NC(=O)CNC(=O)C1COc2ccccc2O1)c1ccc([N+](=O)[O-])cc1 (stereo unspecified) | 0% | -13%
Cc1cccc(C)c1OCC(O)CN(Cc1ccccc1O)C1CCCCC1 (stereo unspecified) | -16% | i
Cc1ccc2nc3c(c(Nc4ccc(C)c(C)c4)c2c1)CCC3 | -29% | u
C=CCOC(=O)C1=C[C@@H](c2csc3ccccc23)C[C@@H](OCc2ccc(CO)cc2)O1 | -17% | -23%
COc1ccc(/C=N/NC(=O)Cc2csc(Nc3cccc(C(F)(F)F)c3)n2)cc1C | u | u
CC(=O)Nc1ccc(S[C@@H](CCN2CC[C@H](O)CCC2=O)c2ccccc2)cc1 | -7%&-21% | -5%
CN1CCCN(S(=O)(=O)c2ccc3c(c2)OCCO3)CC1 | -16% | -8%
CCc1ccc(NC(=O)CSc2nc(=O)n(CCCN(C)C)c3c2CCC3)cc1 | -8% | i
CCOc1cccc(C2C(C(=O)c3ccc(C)o3)=C(O)C(=O)N2Cc2ccncc2)c1 (stereo unspecified) | -5% | -6%
CCc1ccc(CNC(=O)C2CCC(=O)N2C2CCCCC2)cc1 (stereo unspecified) | -16% | -11%
COCC(C)NC(=O)C(C)N1c2cccc3cccc(c23)S1(=O)=O (stereo unspecified) | -7% | -4%
Cc1ccc(CN2CC(C(=O)Nc3nc(C)cs3)CC2=O)cc1 (stereo unspecified) | -5% | -6%
COC(=O)[C@@]12C[C@@H](CC(=O)N3CCN(C(=O)c4ccco4)CC3)C(=O)N(Cc3ccc4c(c3)OCO4)C1=CCC(C)(C)C2 | 0% | -7%
COc1ccc(S(=O)(=O)N2CCCOC2CNC(=O)C(=O)NCc2cccnc2)cc1 (stereo unspecified) | -11% | i
CCOC(=O)c1cc2occc2n1CC(=O)N1CCOCC1 | -9% | -20%
CCCCCC1C(=O)C[C@@H]2CCN3C(=O)CCC[C@H]1[C@H]23 (stereo partly specified) | -14% | -14%
CC1(C)CC(=O)C2=C(C1)N=C1c3ccccc3C(=O)C1C2c1ccc(Cl)cc1 (stereo unspecified) | u | u
Cc1ccc(/C(N)=N/OC(=O)CSc2ccccc2)cc1 | -8% | i
CCN(CC)C(=O)COc1ccc(CC(=O)O)cc1OC | 5% | -2%

Exported field by field: part of the list above
canonical_smiles: CCc1ccc(CNC(=O)C2CCC(=O)N2C2CCCCC2)cc1 (stereo unspecified)
  Vaccinia Venus: -16%
  Vaccinia mCherry: -11%

canonical_smiles: COCC(C)NC(=O)C(C)N1c2cccc3cccc(c23)S1(=O)=O (stereo unspecified)
  Vaccinia Venus: -7%
  Vaccinia mCherry: -4%

canonical_smiles: Cc1ccc(CN2CC(C(=O)Nc3nc(C)cs3)CC2=O)cc1 (stereo unspecified)
  Vaccinia Venus: -5%
  Vaccinia mCherry: -6%

canonical_smiles: COC(=O)[C@@]12C[C@@H](CC(=O)N3CCN(C(=O)c4ccco4)CC3)C(=O)N(Cc3ccc4c(c3)OCO4)C1=CCC(C)(C)C2
  Vaccinia Venus: 0%
  Vaccinia mCherry: -7%

Following part
SMILES | Vaccinia Venus | Vaccinia mCherry
NC(=O)COC(=O)C1c2ccccc2Oc2ccccc21 | -8% | i
Cc1cc(C)cc(OCc2nc3ncc(Br)cc3[nH]2)c1 | -28% | u
COc1ccc(C2=NS(=O)(=O)N(C)C(C(=O)Nc3ccc(OC(F)(F)F)cc3)=C2)cc1 | -11% | -4%
CCN(CC)C(=O)Oc1cc(=O)n2c3c(cccc13)CCC2 | -19% | -12%
Cc1cccc(NC(=O)C2CCCN(c3nnc(-n4c(C)ccc4C)s3)C2)c1C (stereo unspecified) | -23% | -22%
O=C(Nc1cccc(S(=O)(=O)N2CCCCC2)c1)c1ccccn1 | -13% | -7%
Cc1ccc(CCNC(=O)CN(C)S(=O)(=O)c2ccc3c(c2)n(C)c(=O)c(=O)n3C)cc1 | -15% | -15%
CC(Cc1ccccc1Sc1ccccc1O)N(C)C (stereo unspecified) | -20% | x
O=C(Cc1ccc(Cl)c(Cl)c1)OCC(=O)c1ccc[nH]1 | 4% | -4%
COc1ccc(CNC(=O)C[C@@H]2C=C[C@@H](NS(=O)(=O)c3cccc(OC)c3)[C@@H](CO)O2)cc1 | -3% | -12%
NNc1nc2ccccc2nc1C(F)(F)F | -12% | -14%
O=C1NCC(=O)N(Cc2ccccc2)/C1=C/c1ccccc1 | -7% | i
O=C(CSc1nc2ccccc2o1)N1c2ccccc2Sc2ccc(C(F)(F)F)cc21 | -16% | -2%
COc1ccc(C(=O)Nc2ccc(NC(=O)c3cccc(F)c3)cn2)cc1 | -13% | -8%
COc1ccc(C(=O)[C@H]2[C@H]3C(=O)N(c4ccc(C)cc4)C(=O)[C@H]3C3C=CC=NN32)cc1 (stereo partly specified) | -12% | -19%
Cc1ccc(OC(C)C(=O)N(Cc2cccs2)C2CCS(=O)(=O)C2)cc1C (stereo unspecified) | 0% | i
Cc1occc1C(=O)N1CCC2(CCCN(Cc3ccc(F)c(F)c3)C2)C1 (stereo unspecified) | -5% | i
CN(c1ccccc1)c1ccc(/C=C(\CCC(=O)O)c2nc3ccccc3s2)cc1[N+](=O)[O-] | -12% | -14%
C=CCOC(=O)C1=C[C@H](c2coc3ccccc3c2=O)C[C@H](OCc2ccc(CO)cc2)O1 | -1% | i
Cc1nc(Cl)sc1C(=O)Nc1cccc(Cl)c1C | -18% | -22%
CC(=O)O[C@H]1C[C@@]2(O)[C@@H](OC(=O)c3ccccc3)C3[C@@](C)([C@@H](O)C[C@H]4OC[C@@]34OC(C)=O)[C@@H](O)[C@H](OC(C)=O)C(=C1C)C2(C)C (stereo partly specified) | -2% | 2%
O=C(Cn1cc(S(=O)(=O)c2ccccc2)c(=O)c2cc(Cl)ccc21)Nc1ccc2c(c1)OCO2 | 8% | 0%
O=C(NNC(=O)c1cnccc1C(F)(F)F)c1cccc(Cl)c1 | 0% | -14%
CCC(CO)Oc1cc(NC(=O)c2ccc(F)cc2)c2ncn(C(C)C)c2c1 (stereo unspecified) | -9% | i
COC(=O)CCSCC(=O)Nc1nnc(C)s1 | 10% | -10%
CC1CCCCN1S(=O)(=O)c1ccc(C(=O)Nc2nnc(-c3ccco3)o2)cc1 (stereo unspecified) | u | u
CC(CCc1ccccc1)NC(=O)C(=O)NCc1ccccc1 (stereo unspecified) | -18% | i
COc1ccc(OC)c(S(=O)(=O)N(C)CC(=O)N2CCN(c3cccc(Cl)c3)CC2)c1 | -26% | x
Cc1ccc(NC(=O)Cn2c(=O)n(Cc3nc(C)no3)c(=O)c3ccccc32)c(Cl)c1 | -4% | -14%
O=C(Nc1ccc(N2CCN(C(=O)c3ccc(Cl)cc3)CC2)cc1)c1cccnc1 | -20% | x
Cc1cc(C)nc(NS(=O)(=O)c2ccc(N/C=C\C(=O)c3cccs3)cc2)n1 | -6% | -9%
COc1cc(OC)cc(-c2c(C#Cc3ccsc3)c3cc(-c4ccc5cc[nH]c5c4)ccc3n2C)c1 | -1% | u
CCCn1c(SCC(=O)NC2CCCCC2)nnc1-c1ccccn1 | -3% | -18%
Cc1c(C(=O)N(Cc2ccccc2Cl)C2CCS(=O)(=O)C2)oc2ccccc12 (stereo unspecified) | -13% | -23%
COc1ccc(-c2cc(C(=O)N3CCC3)c3ccccc3n2)cc1OC | -19% | i
O=C(Nc1nc2ccsc2c(=O)s1)c1ccco1 | 3% | -12%
Cn1c(Cc2ccc(Cl)cc2)nnc1SCC(=O)NC1CC1 | -11% | -10%
CCOc1ccccc1C(=O)NCC(=O)NCCSc1ccc(Br)cc1 | -15% | i
O=C(OCC(=O)N1CCCc2ccccc21)c1ccccc1NCCO | -4% | -16%
N/C(=N\OS(=O)(=O)c1ccccc1)c1ccccn1 | -12% | i
c1ccc(N2[C@@H]3CC[C@H]2c2ccncc2C3)cc1 | -9% | i
CCCCCCCCCCCCN1[C@@H](CC(C)=O)c2cc(C(F)(F)F)ccc2S1(=O)=O | -10% | -13%
C=CC1=C(C(=O)O)N2C(=O)[C@@H](NC(=O)/C(=N/OCC(=O)O)c3csc(N)n3)[C@H]2SC1 | -9% | i
Cc1nnsc1C(=O)NC(=O)Nc1ccc(F)c(Cl)c1 | -16% | -19%
Cc1ccc(-c2cc(-c3ccccc3Cl)[nH]n2)c(O)c1 | -21% | -24%
CC1(C)SC2c3ccccc3C(=O)N2[C@@H]1C(=O)NC1CCCC1 (stereo partly specified) | -13% | -5%
CN(C)c1ccc(P(=O)(OC2CCCCC2)C(Nc2ccccc2)c2cccnc2)cc1 (stereo unspecified) | -19% | i
CC(NC(=O)c1cc([N+](=O)[O-])cc([N+](=O)[O-])c1)c1ccc(-n2ccnc2)cc1 (stereo unspecified) | -5% | i
COc1ccc(CNc2ncnc3c2nc2n3CCCC2)cc1 | -8% | -26%
C[C@H](CO)N1C[C@H](C)[C@H](CN(C)C(=O)c2ccccc2)OCc2ccccc2-c2c(n(C)c3ccccc23)C1=O | u | -9%
Cc1ccc(C)c(NC(=O)Cn2c(=O)n(CCC(=O)NCc3ccc4c(c3)OCO4)c(=O)c3ccccc32)c1 | -3% | -3%
CCc1oc(C(=O)OC)cc1CSC(=N)N | -24% | -12%
O=C(CN1C(=O)S/C(=C\c2ccc(F)cc2)C1=O)Nc1cccc(S(=O)(=O)NCc2ccco2)c1 | -18% | -27%
CC(C)C(=O)Nc1ccc(C(=O)NCc2cccnc2)cc1 | 0% | -9%
CCc1nnc(NS(=O)(=O)c2ccc(NC(=O)/C=C/C(=O)O)cc2)s1 | -15% | -10%
CC(=O)Nc1cccc(C(=O)N2CCC(n3nccc3NC(=O)CC(C)C)CC2)c1 | -14% | i
COCCN1C(=O)CCC1(C)c1nnnn1-c1c(C)cccc1C (stereo unspecified) | -2% | -8%
O=S(=O)(c1cc(Cl)cc(Cl)c1)N1Cc2cc(-c3cccc(F)c3)ccc2-n2nncc2C1 | -7% | i
O=C(CSc1nc(-c2cccs2)cc(C(F)(F)F)n1)NCCCN1CCOCC1 | -2% | 0%
COc1ccc(C(=O)c2sc(Nc3ccccc3)nc2C)cc1 | -16% | -24%

(next part)
SMILES | Vaccinia Venus | Vaccinia mCherry
CCC(c1nnnn1-c1ccc2c(c1)OCCO2)N1CCN(c2ccc(OC)cc2)CC1 (stereo unspecified) | -13% | -16%
COCCn1c(=O)c2c(nc3n2CC(C)CN3Cc2ccccc2)n(C)c1=O (stereo unspecified) | -15% | i
Cc1nc(N2CCCC2)ncc1C(=O)NCc1ccc(F)cc1 | -3% | 0%
O=C(COC(=O)CCOc1ccccc1)NCCC1=CCCCC1 | -10% | -2%
Cn1c(=O)[nH]c(=O)c2c1nc1n2CCCS1 | -16% | x

Outcome played no part in choosing rows; overall some 0.87% were active at least once.
